# NPYLR7 agonist = mosquito NPYLR7 agonism; 0.15% of 270,000 active; AID 1259423; activation, % at 10 µM; HEK293T NPYLR7/Galpha15, GCaMP6s calcium fluorescence; in the data active = activation above about 40%;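 note: 0% = vehicle and 100% = reference agonist at the receptor; some compounds past the cut are filed as inactive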
# NPYLR7 agonist max-min = second read-out of NPYLR7 agonist, no call of its own (marks repeat the call); activation, %; measured here: Max-Min RFU normalised activation; some inactives read as strong as hits;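 span of the calcium signal over five minutes; 0% = vehicle and 100% = native peptide agonist; compound fluorescence can raise it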
# An asterisk follows results filed as active. Not all compounds are listed. The share of hits here may be higher or lower than overall.
# Order of values – NPYLR7 agonist	NPYLR7 agonist max-min
CCOC(=O)CC1(C)OCC(CN2CCCCC2)O1 (centres undefined)
  -9	-12
CCSC(C)CC1C/C(=N\O)c2c(C)noc2C1 (centres undefined)
  0	-1
Cc1nc(C(=O)N(c2cccc3cccnc23)C2CCCC2)cs1
  -2	22
CCOC(=O)N1CCN(c2c(N(C)C3CCCCC3)c(=O)c2=O)CC1
  3	4
O=C1N(Cc2ccccc2)c2ccccc2OC1(F)F
  2	2
Cc1ccc(NS(=O)(=O)c2ccccc2)cc1S(=O)(=O)Nc1ccc(F)cc1
  0	5
COc1cccc(-c2nn(CC(=O)N(C)c3ccccc3)c(=O)c3nc(C)sc23)c1
  5	4
O=S(=O)(Cc1ccccc1CN1CCOC(C(F)(F)F)C1)c1ccccc1 (centres undefined)
  3	-1
O=C(O)C(Cc1ccccc1)N1C(=O)C2C3C=CC(C4CC34)C2C1=O (centres undefined)
  1	-4
COc1ccc2ccccc2c1-c1nc2ccccc2c(=O)n1CCc1ccc(F)cc1
  1	-1
c1cc(N2CCOCC2)ccc1-c1cnc2c(c1)CCN2
  17	7
COc1cccc(C(CN2CCN(C(=O)c3c(F)cccc3F)CC2)OCc2ccc(C#N)cc2)c1 (centres undefined)
  3	-1
CNCC[C@@H](Oc1ccccc1C)c1ccccc1
  -11	-17
CCOc1ccc(CN(Cc2cccc(C(F)(F)F)c2)Cc2nc(C(=O)NCC3CCCO3)co2)cc1 (centres undefined)
  8	20
CCCCS(=O)(=O)NNc1cc(C(F)(F)F)ccc1Cl
  4	3
CCc1nc2n(n1)C(=O)C(C(c1cccc(Br)c1)N1CCCC1)S2 (centres undefined)
  -2	3
CC(C)c1nnsc1CNC(=O)c1cc(COc2ccccc2)[nH]n1
  4	1
Cc1cccnc1NC(=O)Nc1c[nH]c2ccccc12
  4	-4
CC(C)CC(=O)NC(=S)NCc1ccccc1
  8	11
Cc1ccc2nc(C)c(NC(=O)CCCc3ccccc3)c(=O)n2c1
  -2	-2
Cc1nc(C)c(C(=O)N2CCC3(CCCN(CC(C)(C)C)C3=O)C2)s1 (centres undefined)
  24	1
CCn1nc(C)c(C(=O)N2CCc3c(nc(-c4ccccn4)[nH]c3=O)C2)c1C
  7	5
NC(=O)c1c(NC(=O)COC(=O)c2ccc([N+](=O)[O-])o2)sc2c1CCC2
  9	6
Cc1cc(C2CCC2)nc(N(C)Cc2cc(-c3ccccn3)no2)n1
  21	16
N#CC(=C(O)CSc1nc2ccccc2s1)c1nc2ccccc2s1
  0	0
COc1cc(C2Nc3ccccc3N=C3CC(c4ccc(OC)c(OC)c4)CC(=O)C32)ccc1O (centres undefined)
  -8	-15
Cn1nc2n(c1=O)CC(C(=O)N1CCC(Cc3cccc(C(=O)O)c3)CC1)CC2 (centres undefined)
  3	-3
COc1ccc(C(CC(=O)NCCCN2CCOCC2)c2c[nH]c3ccccc23)c(OC)c1 (centres undefined)
  21	15
COc1ccc2nc(N(CCCN3CCOCC3)C(=O)c3cccc([N+](=O)[O-])c3)sc2c1
  -1	0
CC1=NN(c2ccccc2)C(=O)/C1=C\C=C\c1cccc([N+](=O)[O-])c1
  -1	3
Cc1ccc(Cl)cc1N=Cc1nc(-c2ccc(Br)cc2)oc1O
  -4	-9
O=C(COc1ncnc2c(Cl)cc(Cl)cc12)c1ccc[nH]1
  -1	-1
CCOc1ccc(-c2cc(C(=O)NCc3c(Cl)cccc3Oc3ccccc3)c3ccccc3n2)cc1
  23	14
Cc1ccc(S(=O)(=O)NCC2CCC2)cc1C(F)(F)F
  7	5
Cc1cccc(NC(=O)Cc2csc(NC(=O)c3ccoc3C)n2)n1
  4	1
CCOc1ccc(NC(=O)CSc2nc3c(-c4ccccc4)c[nH]c3c(=O)[nH]2)cc1
  -5	-11
Cc1cc(C)n(CC(=O)Nc2ccccc2N2CCCC2)n1
  -3	-3
Cc1nnc(SCCCNC(=O)C2Cc3ccccc3CN2C)s1 (centres undefined)
  3	-1
O=C(c1cc(-c2ccccc2F)n[nH]1)N1CCOC2(CNCCOC2)C1 (centres undefined)
  -1	0
Cc1ccc2nc(CN(C)C(=O)c3cn4cccnc4n3)[nH]c2c1
  -2	6
Cc1ccc(C(CCN2CCCC2)Oc2ccc(C(=O)NCCc3cnc[nH]3)cc2)o1 (centres undefined)
  2	-1
Cc1c(C(=O)NCc2cccc([N+](=O)[O-])c2)sc(=O)n1Cc1ccc(-c2ccccc2)cc1
  13	4
CC(c1cccc(-c2cccc(C(F)(F)F)n2)c1)N(C)C (centres undefined)
  3	1
COc1ccc(S(=O)(=O)NCCOc2ccc3nnc(C)n3n2)cc1F
  8	10
O=C(O)c1cccc(-c2ccc(C(=O)N3CCC(Oc4cccnc4)CC3)cn2)c1
  13	5

# In the list so far, two contain bromine.
# Order of values – NPYLR7 agonist	NPYLR7 agonist max-min
CCc1nc2n(n1)C(=O)C(C(c1cccc(Br)c1)N1CCCC1)S2 (centres undefined)
  -2	3
Cc1ccc(Cl)cc1N=Cc1nc(-c2ccc(Br)cc2)oc1O
  -4	-9

# (next part)
# Order of values – NPYLR7 agonist	NPYLR7 agonist max-min
NC(=O)COc1ccc2oc(=O)cc(-c3cc4ccccc4o3)c2c1
  0	-6
O=c1c2nnn(-c3ccc(Cl)cc3)c2ncn1C/C=C/c1ccccc1
  -3	-7
O=S(=O)(NCc1cn2ccccc2n1)c1ccc(F)cc1
  4	3
Cc1cccnc1C1=NOC(C)C(=O)N1Cc1ccc(S(C)(=O)=O)cc1 (centres undefined)
  5	1
COc1ccc(CNC(=O)c2cn(Cc3ccc(C)cc3)c(=O)s2)cc1OC
  2	0
O=C(c1cn[nH]n1)N1CCN(Cc2cccc(Cl)c2Cl)CC1
  1	0
CN(C)c1ccc(NC(=O)c2cccc(F)c2)cc1CN(CC1CC1)C(=O)c1ccc(F)cc1
  8	18
CCNC(=O)NC(=O)C(C)Sc1nnnn1-c1ccc(C)cc1C (centres undefined)
  -6	-12
O=C(NC(c1ccc(F)cc1)c1ccc2ccccc2n1)C1CCN(Cc2ccc(Cl)cc2)CC1 (centres undefined)
  -6	-6
O=C(CCN=C1NS(=O)(=O)c2ccccc21)NCCCCCc1nc(-c2cccs2)no1
  -4	1
Cc1nn(C)c(Cl)c1C(=O)NCc1ccc(N2CCCC2)nc1
  4	-1
Cc1c(C)n2c3c(=O)n(CCc4ccccc4)c(=O)n(C)c3nc2n1CC1CCCO1 (centres undefined)
  2	4
CC1=C(C(N)=O)C(c2ccc(Br)cc2)n2ncnc2N1 (centres undefined)
  1	6
O=C(NCCCN1CCOCC1)c1cccc(CSc2nc(Cl)cc(N3CCN(C/C=C/c4ccccc4)CC3)n2)c1
  13	20
Cc1ccsc1CNc1cccc(C(=O)N(C)Cc2snnc2C)c1
  10	7
Clc1ccc(-c2csc3ncnc(N4CCCC4)c23)cc1
  2	7
Cc1ccccc1-c1cc(O)c2c(c1)CN(C(=O)CCn1cnnc1)CCO2
  -1	-3
O[C@@]1(c2ccccc2)CCN(Cc2nc(-c3ccc4c(c3)OCO4)no2)[C@@H]2CCCC[C@@H]21
  6	1
CN1C(=S)N(c2ccc(OCc3ccccc3)cc2)C(=O)/C1=C\c1ccc(O)cc1O
  2	12
O=c1c2c3c(sc2ncn1CCc1n[nH]c2c1CCCC2)CNCC3
  -9	-18
O=C(CNC(=O)COc1ccccc1)N=Nc1c(O)n(Cc2ccccc2)c2ccccc12
  -1	-8
CC1=CC(=C(C#N)C#N)CC(C)(C)C1
  1	-1
O=C(Nc1ccc(Br)cc1Cl)c1ccc(Cl)c(N2CCCC2=O)c1
  6	5
O=C(CCn1cnc2sc3c(c2c1=O)CCCC3)NCc1ccccn1
  9	5
COCCN(CC(=O)Nc1nc(CC(=O)NCCc2ccccc2)cs1)C(=O)c1ccccc1
  -11	0
C=Cc1ccc(C(=O)N(C)CC2CCCN(CCc3ccccc3C)C2)cc1 (centres undefined)
  -4	-8
CC(NC(=O)Cc1csc(NC(=O)c2ccco2)n1)c1ccccc1 (centres undefined)
  5	7
CC(C)C(NC(=O)CCc1nc2cc(S(=O)(=O)N3CCOCC3)ccc2n1C)c1ccccc1 (centres undefined)
  6	2
CCOc1ccc(SCC(=O)Nc2ccc(F)c(NC(C)=O)c2)cc1
  2	2
COc1ccccc1C(C)NC(=O)c1ccccc1C(F)(F)F (centres undefined)
  7	2
O=[N+]([O-])C(C1=NCCO1)/C(Cl)=C(/Cl)N1CCOCC1 (centres undefined)
  -6	-12
O=C(NC1CC1)C1CCCN(C(=O)C2CC2c2ccc(Cl)cc2)C1 (centres undefined)
  7	2
CCOc1ccc(C2=NC(=Cc3cc(OC)c4c(c3)OCCO4)C(=O)O2)cc1
  0	-2
COc1cccc(CN2C(=O)C3(NCCS3)c3cc(Cl)ccc32)c1 (centres undefined)
  5	5
Cc1ccc(NC(=O)NCc2nnnn2C2CCCCC2)cc1
  3	1
COCCC(=O)Nc1ccc2c(c1)CN(Cc1cccn1-c1ncccn1)CC2
  3	2
CCOc1ccc(C2=NC(=Cc3cc(OC)c4c(c3)OCCO4)C(=O)O2)cc1OCC
  2	21
O=C(CCC1CCN(Cc2cc(Cl)ccc2O)CC1)NCc1cccnc1
  9	4
CN(C)c1ccc(-c2nc(-c3cc4c5c(c3)CC(=O)N5CCC4)cs2)cc1
  3	10
COc1ccc(NC(=O)c2ccc(Cn3ccnc3)cc2)cc1N1CCCC1=O
  6	2
Cc1cc(Cl)ccc1S(=O)(=O)N1CCCc2c1cccc2S(N)(=O)=O
  2	2
CO[C@H]1COC[C@@H]1NCC(=O)Nc1cccc(F)c1C
  -1	-1
O=C(Nc1ccc(N2CCCCC2)cc1)c1ccc(N2CCCC2)c([N+](=O)[O-])c1
  11	8
Cn1cnnc1SCC(=O)N1N=C(c2cccs2)CC1c1cccs1 (centres undefined)
  1	6
CC(=O)Nc1ccc2c(c1)S(=O)(=O)N=C(c1ccoc1)N2c1ccccc1
  20	6
O=C(c1cnn2c(-c3ccccc3)cc(-c3ccccc3)nc12)N1CCOCC1
  -5	-5
Cc1nn(C)cc1-c1ccnc(NCc2cc(-c3ccccc3)n(C)n2)n1
  0	0
Cc1nsc(NC(=O)N2CCC(CN)CC2)n1
  2	1
C=CCOc1ccccc1CN1C(=O)C(O)(CC(C)=O)c2cc(C)cc(C)c21 (centres undefined)
  2	13
CC(C)(C)C(C#N)NC(=O)c1ccc(Oc2cccnc2)cc1 (centres undefined)
  -4	-6
Cc1cccc(C(=O)NC2CC(=O)N(CCc3ccc(F)cc3)C2)n1 (centres undefined)
  16	11
CN(Cc1ccccc1)C1CCCN(C(=O)CCc2cnccn2)C1 (centres undefined)
  7	0
Cc1ccc2c(C)cc(SCC(=O)NC(C)C)nc2c1C
  19	17
CC(=O)Nc1ccc(-c2csc(N3CCN(C)CC3)n2)c(F)c1
  -17	-19
C=CCc1ccc(OC(C)C(=O)Nc2ccc(OC)cc2)c(OC)c1 (centres undefined)
  3	1
CN1CC(=O)N2C[C@H](NC(=O)c3ccc(-c4ccn[nH]4)cc3)C[C@H]2C1=O
  5	5
O=c1[nH]c(=O)n(Cc2coc(-c3ccc(F)c(F)c3)n2)cc1Cl
  1	1
Cc1[nH]n(-c2nc(-c3ccc(Cl)cc3)cs2)c(=O)c1N=Nc1c(Cl)cccc1Cl
  -7	-10
Cc1cc(C(=O)COC(=O)C2=COCCO2)c(C)n1CC1CCCO1 (centres undefined)
  11	9
Fc1ccc(CN2CCC(Cc3ccc(-n4cccc4)cc3)CC2)cc1C(F)(F)F
  2	3

# (more compounds)
# Order of values – NPYLR7 agonist	NPYLR7 agonist max-min
CCOc1ccc(C(=O)NCCc2csc3nc(-c4ccc(OC)c(OC)c4)nn23)cc1
  0	-1
COc1ccc(C(=O)N2CCN(c3cc(Cl)nc(SCC(=O)N4CCN(c5cccc(Cl)c5)CC4)n3)CC2C)cc1 (centres undefined)
  1	2
COC(=O)[C@@H]1CCCN1C(=O)Cc1ccc(N2CCC(NCc3ccon3)CC2)cc1
  7	1
CCCCCCCC(=O)Nc1c(-c2cccc(Cl)c2)nc2ccc(C)cn12
  5	10
CCOC(=O)C(C)Sc1nnc(NC(=O)c2cccc(Cl)c2)s1 (centres undefined)
  -4	7
COc1ccc(C(C2Sc3ncnn3C2=O)N2CCN(Cc3ccccc3)CC2)cc1OC (centres undefined)
  0	-1
CCOc1ccc(/C=N\Nc2nc(N3CCOCC3)nc(N3CCOCC3)n2)cc1
  -1	-3
Cc1cccn2c(=O)c3cc(C(=O)N4CCC(C)CC4)sc3nc12
  9	4
CCOc1ccccc1-c1cc(C(=O)N2CCCC2c2cc(C)on2)[nH]n1 (centres undefined)
  -5	1
O=C(C=Cc1cccs1)NC1CCCCC1
  3	2
COCCN(Cc1nccn1Cc1cccc(C(F)(F)F)c1)C(=O)c1cccc(F)c1
  6	6
Cc1ccc(C)n1-c1sccc1C(=O)O
  25	17
COc1ccc(NC(=O)CN2CN(c3ccccc3)C3(CCN(C(=O)c4cccc(Cl)c4)CC3)C2=O)cc1
  -3	2
Fc1ccccc1C1CC(c2ccc(Br)cc2)=Nc2nnnn21 (centres undefined)
  -3	-1

# Already shown: entries from further up.
# Order of values – NPYLR7 agonist	NPYLR7 agonist max-min
Cc1cccn2c(=O)c3cc(C(=O)N4CCC(C)CC4)sc3nc12
  9	4
CCOc1ccccc1-c1cc(C(=O)N2CCCC2c2cc(C)on2)[nH]n1 (centres undefined)
  -5	1
O=C(C=Cc1cccs1)NC1CCCCC1
  3	2
COCCN(Cc1nccn1Cc1cccc(C(F)(F)F)c1)C(=O)c1cccc(F)c1
  6	6
Cc1ccc(C)n1-c1sccc1C(=O)O
  25	17
COc1ccc(NC(=O)CN2CN(c3ccccc3)C3(CCN(C(=O)c4cccc(Cl)c4)CC3)C2=O)cc1
  -3	2
Fc1ccccc1C1CC(c2ccc(Br)cc2)=Nc2nnnn21 (centres undefined)
  -3	-1

# Screens as filed in PubChem BioAssay.
